Screens from PubChem BioAssay.
KCNQ2 enhance: enhances the rat KCNQ2 potassium channel. B-score at 10 µM. AID 2239. 310,000 compounds, 0.54% hits. O88943. CHO-K1 KCNQ2, FluxOR thallium flux fluorescence; stronger effect = higher value;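 active = fluorescence ratio B-score at least 3 SD of library B-scores, with initial fluorescence B-score within 3 SD, cut at about 5.3 in these data; same plate scores as AID 2156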;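 note: B-score of peak minus minimum over baseline fluorescence ratio after K+ and Tl+ stimulus; positive B-score means potentiation of KCNQ2 with more thallium influx and brighter signal; only the inactives scoring about 0 or higher are listed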
Target sequence (O88943 whole entry, looked up): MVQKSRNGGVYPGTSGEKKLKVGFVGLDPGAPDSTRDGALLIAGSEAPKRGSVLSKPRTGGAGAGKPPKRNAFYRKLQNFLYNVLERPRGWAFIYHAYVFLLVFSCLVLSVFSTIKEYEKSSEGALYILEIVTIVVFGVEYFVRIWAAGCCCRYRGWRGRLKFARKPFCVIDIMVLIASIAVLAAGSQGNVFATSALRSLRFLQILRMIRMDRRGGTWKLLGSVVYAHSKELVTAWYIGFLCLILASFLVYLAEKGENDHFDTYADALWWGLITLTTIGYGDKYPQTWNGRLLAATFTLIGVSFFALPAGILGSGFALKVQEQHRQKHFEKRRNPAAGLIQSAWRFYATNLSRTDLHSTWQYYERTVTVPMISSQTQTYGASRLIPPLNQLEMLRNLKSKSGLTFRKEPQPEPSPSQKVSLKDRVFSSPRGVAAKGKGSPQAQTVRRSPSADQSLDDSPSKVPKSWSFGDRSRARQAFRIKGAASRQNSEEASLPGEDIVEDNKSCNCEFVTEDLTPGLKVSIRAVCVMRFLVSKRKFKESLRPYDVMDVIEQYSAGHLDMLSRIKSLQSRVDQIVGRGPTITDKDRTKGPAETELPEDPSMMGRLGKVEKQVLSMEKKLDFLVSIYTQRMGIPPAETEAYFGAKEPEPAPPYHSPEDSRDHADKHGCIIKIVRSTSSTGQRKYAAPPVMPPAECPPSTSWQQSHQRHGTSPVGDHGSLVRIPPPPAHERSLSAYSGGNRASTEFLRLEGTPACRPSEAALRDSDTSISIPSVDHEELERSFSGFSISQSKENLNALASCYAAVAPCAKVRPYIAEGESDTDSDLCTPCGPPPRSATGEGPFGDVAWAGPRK
KCNQ2 enhance baseline: further read-out of KCNQ2 enhance, marked with its call; B-score; compound at 10 µM; measured here: initial fluorescence intensity artifact check;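 brightness before thallium and not channel activity; 0 = typical well and far values either way flag optical interference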
* = called active by the depositor.

no.	KCNQ2 enhance	KCNQ2 enhance baseline	mol
1	1.6	-0.1	O=C(CN(C(=O)CCC(=O)Nc1nccs1)c1ccc(F)c(Cl)c1)NCC1CCCO1 (stereo not given)
2	0.05	1.6	CC(C)Oc1ccc(S(=O)(=O)N2CCOCC2)cc1NC(=O)C(C)Oc1ccc(F)cc1 (stereo not given)
3	0.97	3.6	Cc1ccccc1C(=O)NC1CCN(C(=O)NC2CCCCC2)CC1
4	0.16	-1.3	CSCCC(NC(=O)c1ccc(Cl)cc1)C(=O)O (stereo not given)
5	0.95	0.86	Cc1ccnc(NC(=O)/C=C/c2ccccc2Cl)c1
6	0.54	3.5	O=C(COC(=O)c1ccccc1C(=O)c1ccccc1)Nc1ccc(SC(F)F)cc1
7	0.52	1.1	Cc1ccc(-n2ncc3c(=O)[nH]c(SCC(=O)N4CCCCC4)nc32)cc1
8	1	0.42	COC(=O)c1scc(C)c1-n1ccc(C(=O)C(=O)N(C)C)c1
9	3.1	1.1	O=C(CCN1C(=O)c2ccccc2C1=O)Nc1ccc(F)cc1F
10	0.07	-1.3	CCOC(=O)c1c(S(=O)(=O)NCc2cccs2)c(C)n(C)c1C
11	1	0.85	Cc1cccc(OCCSc2cc(C)nc(N)n2)c1
12	4.4	1.3	NC(=O)[C@H]1CC2(CC(c3cccc(NC(=O)[C@H]4CCC(=O)N4)c3)=NO2)CN1C(=O)c1cc([N+](=O)[O-])cc([N+](=O)[O-])c1 (stereo not given in full)
13	0.86	1.1	CC1(c2nnc(-c3ccncc3)o2)CC(c2cccc(Cl)c2)=NO1 (stereo not given)
14	0.8	-0.06	COc1ccc(/C(C)=N/OC/C(O)=C(\C#N)c2nc3ccccc3[nH]2)cc1
15	0.47	0.29	CS(=O)(=O)Nc1nnc(SCC(=O)N(c2ccccc2)c2ccccc2)s1
16	1.1	-0.69	Cc1nc2ccccn2c1C(=O)NNC(=O)Nc1cccc(C(F)(F)F)c1
17	0.12	0.39	CCCC(c1nnnn1Cc1ccc(F)cc1)N1CCN(C2CCCCC2)CC1 (stereo not given)
18	0.71	0.51	COc1cc(NC(=O)c2cccc(NC3=NC4CS(=O)(=O)CC4S3)c2)cc(OC)c1OC (stereo not given)
19	0.86	-0.13	C/C=C(\C)C(=O)NCCN1C2=NC[C@H](C(C)C)N2C[C@@H]1Cc1ccc(OC)cc1
20	0.1	1.8	O=C(CNc1ccccc1Cl)c1ccc(Br)cc1
21	3.5	-0.73	CN(C(=O)COC(=O)CNC(=O)C12CC3CC(CC(C3)C1)C2)C1CCS(=O)(=O)C1 (stereo not given)
22	0.08	0.73	CC1CCCN(S(=O)(=O)c2ccc(NC(=O)CN3CCN(C)CC3)cc2)C1 (stereo not given)
23	0.2	-1.1	CCC(=O)Nc1ccc(OC)cc1OC
24	0.02	0.83	CC(C)c1nnc(NC(=O)CCCCCN2C(=O)C3C4C=CC(C4)C3C2=O)s1 (stereo not given)
25	3.5	0.68	CC(C)CCN1CCN(C2CCN(c3ccccc3)CC2)CC1CCO (stereo not given)
26	0.66	2.1	COC(=O)C1=C(C)N(CCCC(=O)O)C(=O)NC1c1cc2c(cc1[N+](=O)[O-])OCO2 (stereo not given)
27	1.4	-0.2	Brc1ccc(C2=Nc3ccccc3C(c3ccncc3)=NN2)cc1
28	1.6	-0.43	Cc1cccc(NC(=O)c2ccc(S(=O)(=O)N3CCCCC3)cc2)c1
29	0.87	0.51	COc1ccc(-n2cnnc2SCC(=O)N(C)C2CCS(=O)(=O)C2)cc1 (stereo not given)
30	1.8	-0.36	O=C(CS(=O)(=O)c1cccc(Cl)c1)Nc1ccccc1Cl
31	1.2	1.1	C/C(=N\NC(=O)c1ccc(N(C)C)cc1)c1cccnc1
32	1.6	1.1	C=CCC(O)c1c(-c2ccccc2)nn(C)c1Cl (stereo not given)
33	0.98	-3	CCOC(=O)C(C)Sc1nc(=O)n2cccc(C)c2n1 (stereo not given)
34	0.36	0.09	O=C(CSc1nnc(CNC(=O)c2ccc(F)cc2)o1)NCC1CCCO1 (stereo not given)
35	0.09	0.01	CC(=O)c1ccc(NC(=O)C2CCCN(S(=O)(=O)c3c(C)[nH]c(=O)[nH]c3=O)C2)cc1 (stereo not given)
36	2.9	0.43	CCCCN1C2=NCCCN2c2cc(C)c(C)cc21
37	1.6	-0.67	Cc1ccc(C)c(-n2cc(-c3ccc(Cl)cc3)nc2SCC(=O)NC2CCS(=O)(=O)C2)c1 (stereo not given)
38	0.54	1.2	COC(=O)c1ccccc1NC(=O)CSc1n[nH]c(-c2cccnc2)n1
39	0.46	-0.5	Cn1c(N)c(C(=O)COC(=O)COc2ccccc2C#N)c(=O)n(C)c1=O
40	0.98	0.04	CCCS(=O)(=O)N1CCCC(C(=O)NCCc2cccc(C)c2)C1 (stereo not given)
41	1.9	-0.38	O=C(Cn1cnc([N+](=O)[O-])c1)Nc1cc(Oc2ccc(Cl)cc2Cl)cc([N+](=O)[O-])c1
42	0.1	-0.09	CCCCc1cc(=O)oc2cc(C)cc(OC(C)C(=O)NCc3ccccn3)c12 (stereo not given)
43	0.18	-0.1	Cc1ccc(C)c(N2CCN(S(=O)(=O)c3ccc4c(c3)NC(=O)CC(=O)N4)CC2)c1
44	0.37	-1.5	Cc1c(-c2cc[n+]([O-])cc2)oc2ccc(Br)cc2c1=O
45	1.1	-1.2	O=C1NC(=NCc2ccccc2)S/C1=C\c1ccccc1
46	0.56	1.8	COc1ccc(CCNS(=O)(=O)c2ccc(N3CCCC3=O)cc2)cc1
47	0.77	-2.8	C[C@H](NC(=O)NCCc1ccccc1)C(=O)O
48	0.97	-1.1	Cc1cc(C)n(-c2ccc(C(=O)Nc3cc(S(=O)(=O)N(C)C)ccc3Cl)cc2)n1
49	0.22	0.9	COc1ccc(CNCc2c(F)cccc2F)cc1OC
50	0.22	2.4	COc1ccc(CCNC(C)C(=O)Nc2ccc(S(N)(=O)=O)cc2)cc1 (stereo not given)
51	0.05	-2.1	COC(=O)c1ccc(C(=O)OC)c(NC(=S)N2CCN(C(=O)C3CCCO3)CC2)c1 (stereo not given)
52	0.61	1.4	O=C1NC2(CCCCCC2)C(=O)N1CCS(=O)(=O)Oc1ccccc1
53	0.18	0.83	COc1cc(NC(=O)CN2CCN(c3ccccc3F)CC2)c(C)cc1[N+](=O)[O-]
54	0.96	0	COc1ccc(C(=O)NCc2ccc3c(c2)OCO3)cc1S(=O)(=O)NCc1ccc(Cl)cc1
55	1.3	0.6	CCN(CC)CCCN(C(=O)c1ccc(OC)cc1)c1nc(-c2ccc(OC)cc2)cs1
56	1.4	0.25	CCOc1ccccc1-c1nc2c(s1)CCc1onc(-c3ccc(OC)cc3)c1-2
57	9.1*	-1*	O=C(N/N=C/c1cc(Br)ccc1O)c1ccccc1Cl
58	0.49	1.4	CCOC(=O)c1c(-c2ccccc2)n(C)c2ccc(O)cc12
59	2	-0.03	CCN(CC(=O)Nc1c(F)cccc1F)C(=O)/C=C/c1ccc2ccccc2n1
60	2.8	-0.43	CCOC(=O)N1CCN(C(=O)c2cccc(N3C(=O)NC4CC3(C)Oc3ccccc34)c2)CC1 (stereo not given)

Complete entries, looked up by structure. Values in the order: KCNQ2 enhance	KCNQ2 enhance baseline
`O=C(N/N=C/c1cc(Br)ccc1O)c1ccccc1Cl` in the list: 9.1*	-1*
`Cc1cc(C)n(-c2ccc(C(=O)Nc3cc(S(=O)(=O)N(C)C)ccc3Cl)cc2)n1` in the list: 0.97	-1.1
`COc1ccc(C(=O)NCc2ccc3c(c2)OCO3)cc1S(=O)(=O)NCc1ccc(Cl)cc1` in the list: 0.96	0
`C[C@H](NC(=O)NCCc1ccccc1)C(=O)O` in the list: 0.77	-2.8

Carrying on.
no.	KCNQ2 enhance	KCNQ2 enhance baseline	mol
61	0.88	-3.2	COc1ccc(Nc2nc3ccc(OC)cc3s2)cc1
62	0.66	0.79	Cc1c(-c2ccc(OCc3ccccc3)cc2)nc2ccccc2c1C(=O)O
63	0.18	-0.22	C/C(=N\O)C(C)/[N+]([O-])=C/c1nc(C)c(C)n1O (stereo not given)
64	0.74	1.4	CC(=O)Nc1ccc(CN(C)CC2CCCN(CCc3cccc(C(F)(F)F)c3)C2)cc1 (stereo not given)
65	3.5	-1.7	CCC(=O)N(Cc1cc2c(C)ccc(C)c2[nH]c1=O)C1CCCCC1
66	0.12	-0.78	CC(C)(C)c1ccccc1NC(=O)COC(=O)CN1C(=O)NC2(CCCC2)C1=O
67	1.8	-0.52	CCc1ccc(CCC(=O)Nc2ccc(C(=O)O)cc2)o1
68	0.83	-0.95	O=C(N/N=C/c1cccc([N+](=O)[O-])c1)c1cc[n+](CCO)cc1
69	1.1	0.81	COC(CNC(=O)C(=O)NCC1CCCN1S(=O)(=O)c1cccs1)OC (stereo not given)
70	0.07	-1.4	CCOC(=O)COc1c(C(=O)OC)sc2ncccc12
71	0.27	-1.2	S=c1nc(C23CC4CC(CC(C4)C2)C3)[nH][nH]1
72	1.7	0.9	O=C(NCc1ccco1)c1ccc(CS(=O)Cc2ccc(Cl)cc2)o1 (stereo not given)
73	1.4	0.21	Cc1csc(NC(=O)CCN2C(=O)c3ccccc3S2(=O)=O)n1
74	2.5	-3.3	COc1ccc([N+](=O)[O-])cc1NC(=O)Nc1cccc(Cl)c1
75	0.02	-0.09	CN(c1cccnc1)c1ncnc2[nH]ncc12

A second format for 7 compounds above:
Second line of a record – KCNQ2 enhance	KCNQ2 enhance baseline
69. COC(CNC(=O)C(=O)NCC1CCCN1S(=O)(=O)c1cccs1)OC (stereo not given)
→ 1.1	0.81
70. CCOC(=O)COc1c(C(=O)OC)sc2ncccc12
→ 0.07	-1.4
71. S=c1nc(C23CC4CC(CC(C4)C2)C3)[nH][nH]1
→ 0.27	-1.2
72. O=C(NCc1ccco1)c1ccc(CS(=O)Cc2ccc(Cl)cc2)o1 (stereo not given)
→ 1.7	0.9
73. Cc1csc(NC(=O)CCN2C(=O)c3ccccc3S2(=O)=O)n1
→ 1.4	0.21
74. COc1ccc([N+](=O)[O-])cc1NC(=O)Nc1cccc(Cl)c1
→ 2.5	-3.3
75. CN(c1cccnc1)c1ncnc2[nH]ncc12
→ 0.02	-0.09

More compounds.
no.	KCNQ2 enhance	KCNQ2 enhance baseline	mol
76	2.8	0.08	CC(=O)Nc1sc(C)c(C)c1CN1CCN(S(=O)(=O)c2ccccc2)CC1
77	0.22	0.39	O=C(/C=C/c1ccc(Cl)cc1)NCc1cccs1
78	0.03	0.08	CCOc1ccc(CCNS(=O)(=O)c2ccc(-c3ccc(=O)[nH]n3)o2)cc1OCC
79	0.01	0.12	COc1ccccc1-c1cn[nH]c1-c1ccc(OCc2ccc([N+](=O)[O-])cc2)cc1O
80	0.47	-1.1	CN(Cc1ccccc1)c1nnc(N)s1
81	0.6	-0.14	Cc1ccccc1-c1nc(CN2CCC(C(=O)NCC3CCCO3)CC2)c(C)o1 (stereo not given)
82	2.5	0.48	Fc1ccc2[nH]c3c(N4CCN(C5CCCCC5)CC4)ncnc3c2c1
83	0.46	-0.02	O=C(CN(C(=O)Cn1nnc(-c2ccc(F)cc2)n1)c1ccc(F)c(Cl)c1)NCC1CCCO1 (stereo not given)
84	0.01	-0.91	CCOc1ccc(CCNC(=O)C2CCCN(c3nnc(-n4cccc4)s3)C2)cc1OCC (stereo not given)
85	0.32	0.29	COc1ccc(S(=O)(=O)N2CCOC2CNC(=O)C(=O)NCc2ccco2)cc1 (stereo not given)
86	0.35	0.25	O=S1(=O)N=C(SCCO)c2ccccc21
87	0.09	-0.13	CCC(C)(C)NC(=O)C(c1cccn1C)N(Cc1ccccc1)C(=O)Cn1nnc2ccccc21 (stereo not given)
88	0.82	0.65	CC(=O)n1c2c(c3ccccc31)OC(N)=C(C#N)C2c1cccc(Cl)c1Cl (stereo not given)
89	0.67	-0.99	O=C(NCc1ccccc1OC(F)(F)F)C1CCC(=O)N(CCc2ccccn2)C1 (stereo not given)
90	3.2	-1.2	Cc1ccc(CCC(=O)Nc2ccc(C)c(C)c2)o1
91	1.7	2.6	CCC(=O)N1CCCc2cc(S(=O)(=O)N3CCC(N4CCCCC4)CC3)ccc21
92	1.2	-0.02	COc1cc2c(cc1OC)C(C)N(S(=O)(=O)c1cccs1)CC2 (stereo not given)
93	0.12	0.67	COc1cc([N+](=O)[O-])ccc1NC(=O)Nc1nc2c(s1)CCCC2
94	0.47	1.6	Cc1ccc(CS(=O)Cc2ccc(C(=O)N3CCN(c4ccccc4)CC3)o2)cc1 (stereo not given)
95	0.87	0.35	Cc1cccc(N2C(=O)CC(Sc3nc(C)c4c(n3)CCCC4)C2=O)c1 (stereo not given)
96	0.83	-0.06	CC1(C)c2[nH]c3ccccc3c2C[C@@H]2C(=O)N(Cc3ccco3)C(=O)N21
97	0.97	0.88	CCCc1nc(-c2cc3ccc(C)cc3[nH]c2=O)no1
98	0.87	0.85	COc1ccc(/C=C/C(=O)N2CCN(c3ccccn3)CC2)cc1
99	0.92	0.04	COC(=O)CSCC(=O)Nc1nnc(-c2cccc(C)c2)s1
100	1.2	-0.04	CC(=O)OCCCN1C(=O)c2cccc3cc(Br)cc(c23)C1=O
101	1.5	-1	CCN1C(=O)NC(c2ccc(Cl)cc2)C2=C1CCCC2=O (stereo not given)
102	2	-0.16	CN(/N=C\c1ccc(O)c(O)c1)c1nc(-c2ccccc2)cc(-c2ccccc2)n1
103	0.01	-0.62	CC1=C(C#N)C(Nc2ccc(Cl)cn2)(C(F)(F)F)C(=O)N1 (stereo not given)
104	1.3	-1.5	CNc1nc2c(N)ncnc2n1[C@H]1O[C@@H](CO)[C@H](O)[C@@H]1O

Some of the compounds tested; count on the stated rates, not on these rows.
